Menin-MLL FL inh: menin-MLL binding inhibition, fluorescein peptide; FP activity change, % at 61.4 µM; 290,000 tested, under 10 active; Fluorescence polarization, fluorescein-MLL peptide displacement from menin; inconclusive = falling polarisation curve, or a change in total fluorescence; inactive = total fluorescence flat and polarisation flat or rising; no compound was filed as active; the % refers to the polarisation; negative = inhibition;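 note: % of control where 0% means no effect; inhibitors lower the polarisation; unlabelled MLL peptide was the positive control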
gsp antagonist: antagonists of gsp mutant (McCune-Albright syndrome); Potency, µM (titrated, usually from 76.9 µM), without a hit: top-dose activity change, negative = inhibition, most hits filed as inhibitors; gsp-mutant cells, cAMP HTRF, 30 min; control for the full effect not named in the record; 340,000 compounds, 0.4% hits; active = falling curve of any shape with a large fitted effect; inconclusive = falling curve, mostly with a smaller effect; inactive = flat or rising curve; cell line not stated here;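 note: intracellular cAMP measured with PDE inhibitor Ro 20-1724 present during compound exposure; potency is the fitted concentration of half-maximal effect; % is set by controls: 0 for no effect and ±100 for the full control effect; nearly all actives have a fitted effect of over 65% in size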
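Measurement of cellular cAMP by homogeneous time-resolved fluorescence following a 30 min compound exposure at 37C. The PDE inhibitor […] was present throughout; the assay buffer was DPBS with 0.05% BSA and 0.005% Tween 20.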
gsp ag: activates gsp, the McCune-Albright syndrome mutation. Potency, µM (series often up to 76.9 µM), inactives show top-dose activation (cAMP increase), usual class: activators. 340,000 compounds, 0.13% hits. gsp mutant cells, cAMP HTRF, 30 min; control for the full effect not named in the record; active = well fitted activation curve with a large enough effect; inconclusive = small, poorly fitted or top-dose-only effect, or another doubt; inactive = no such curve, though single readings can be large or run the other way; cell line not stated here;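 note: phosphodiesterase inhibitor Ro 20-1724 added with compounds to block cAMP breakdown; potency is the fitted concentration of half-maximal effect; nearly all actives have a fitted effect of over 60% in size; about a fifth of the inactives were tested at one dose only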
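Cells stably selected in G418 were plated at 2000/well, grown 16-24 hr, then given compounds in DMSO with the PDE inhibitor […] (300 uM solution added) for 30 min at 37C; cAMP was read by HTRF.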
ClpP mod: qHTS Assay for Activators of ClpP; AID 651965, 2013; Potency, µM (titrated, usually from 57.5 µM), inactives show at the highest dose activity change, negative = active; 340,000 compounds, 1.9% hits; ATP-dependent Clp protease proteolytic subunit (Bacillus subtilis (strain 168)), P80244; purified B. subtilis ClpP, FRET peptide cleavage, 20 min; active = well fitted falling curve with a large enough effect; inconclusive = small, poorly fitted or top-dose-only effect; inactive = no such curve, though single readings can be large or run the other way; note: potency is the fitted concentration of half-maximal effect; the source files actives as falling curves though it sought activators and does not explain the sign; nearly all actives have a fitted effect of over 65% in size; many hits overshoot -100%
Target sequence (P80244 whole entry, looked up): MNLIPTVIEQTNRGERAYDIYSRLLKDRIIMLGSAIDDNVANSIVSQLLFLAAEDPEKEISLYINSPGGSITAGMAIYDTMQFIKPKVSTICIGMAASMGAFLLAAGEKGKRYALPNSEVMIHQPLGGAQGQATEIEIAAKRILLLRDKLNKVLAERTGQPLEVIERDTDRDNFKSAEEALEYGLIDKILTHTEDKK
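Purified B. subtilis ClpP, 10 microg/mL final in Tris/HCl pH8 with KCl, BSA, glycerol and Tween-20, cleaved an Abz/nitrotyrosine-quenched decapeptide. Fluorescence (ex 320, em 430) was read at 0 and 20 min at room temperature. Delta was normalized to 5.8 microM ADEP and DMSO/no-enzyme controls.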
TRPML1 ag: human mucolipin-1 channel agonism; TRPML1-expressing cells, Ca2+ dye fluorescence, FDSS; host cell line not named in the record; reference of the full effect not given here; activation, % (test concentration not listed); 410,000 compounds, 0.12% hits; AID 624414; in the data active = activation above about 50%; inconclusive = about 30% to 50%; inactive = below about 30%; note: 0% is about no effect; the text of the record puts the active cut at 80%
Target sequence (Q9GZU1 whole entry, looked up): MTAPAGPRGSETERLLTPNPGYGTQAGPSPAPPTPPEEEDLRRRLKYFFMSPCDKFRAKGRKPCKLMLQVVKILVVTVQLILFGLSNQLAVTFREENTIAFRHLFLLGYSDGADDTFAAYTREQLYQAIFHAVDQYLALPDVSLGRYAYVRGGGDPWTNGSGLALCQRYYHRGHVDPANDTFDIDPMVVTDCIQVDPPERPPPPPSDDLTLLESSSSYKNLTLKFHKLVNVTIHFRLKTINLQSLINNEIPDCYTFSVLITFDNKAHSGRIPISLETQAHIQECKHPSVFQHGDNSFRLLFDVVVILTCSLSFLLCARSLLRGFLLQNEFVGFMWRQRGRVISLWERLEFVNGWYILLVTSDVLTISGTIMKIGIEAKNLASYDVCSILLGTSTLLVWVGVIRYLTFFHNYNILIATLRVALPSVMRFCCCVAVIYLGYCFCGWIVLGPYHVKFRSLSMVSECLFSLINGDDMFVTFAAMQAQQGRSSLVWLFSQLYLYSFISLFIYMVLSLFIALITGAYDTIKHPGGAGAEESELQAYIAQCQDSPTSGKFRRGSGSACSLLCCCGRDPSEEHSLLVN
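Kinetic FDSS Ca2+ read in Tet-induced TRPML1-DL cells (ABD Ca8 dye plus quencher, 45-90 min RT loading): baseline, then compound, then 110 s agonist window; EC80 agonist 54-4 at 4uM final added afterwards for a 110 s antagonist window.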
TRPML1 inh: human mucolipin-1 channel inhibition; Q9GZU1; TRPML1-inducible cells, Ca2+ dye fluorescence, FDSS; active compounds read low; inhibition of EC80 agonist-evoked calcium signal; activity change, negative = inhibition, % (no concentration beside the values); 390,000 compounds, 0.02% hits; AID 624415; in the data active means activity change below about -50%; inconclusive means about -30% to -50%; inactive means above about -30%;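 note: stimulus is agonist 54-4 at its EC80 concentration; % is set by controls: 0 for no effect and ±100 for the full control effect; compound concentration not given in the record; the text of the record puts the active cut at -80%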
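Calcium fluorescence in TRPML1-DL cells induced overnight with Tet: a 110 s read after compound pin addition, then a 110 s antagonist read after challenge with 54-4 at 4 uM final (EC80).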
The depositor's hits bear a star; ? = inconclusive; · = no result given; [ ] = remark or other dose.

SMILES | Menin-MLL FL inh | gsp antagonist | gsp ag | ClpP mod | TRPML1 ag | TRPML1 inh
Cc1nc(NNC(=O)c2ccc(Cl)cc2Cl)cc(-c2ccccc2)n1 | 5.5 | 7% | -8% | 1.1% | -0.3 | 9
COc1ccc(Cn2c(-c3ccccc3C)nc3c(c(=O)c4ccccc4n3C)c2=O)cc1 | · | 48%[activator] | 12% | 1.1% | -0.9 | -1
COc1cccc(C2CC(c3cccs3)=NN2C(=O)CSc2nc3c(cnn3-c3ccc(F)cc3)c(=O)[nH]2)c1OC (stereo unspecified) | 0.7 | -13% | -17% | 4.2% | 0.0 | -5
COc1ccc(N2C(=O)CC(Cc3ccc(Br)cc3)C2=O)cc1 (stereo unspecified) | -0.1 | -4% | -7% | 0.1% | · | ·
Cc1ccc(CN(C)CC(=O)Nc2cccc([N+](=O)[O-])c2)o1 | -1.6 | -6% | -2% | · | -0.7 | 5
COC(=O)c1sc2nc(C)cc(-c3ccccc3)c2c1N | 3.5 | 1% | 4% | -4.3% | -0.2 | 9
O=C1NC(=O)C(CSc2ccccc2)(c2ccccc2)N1 (stereo unspecified) | · | -16% | 9% | · | 0.1 | 12
CCOc1ccc(OCCC(=O)N(CC(=O)Nc2ccccc2C(F)(F)F)Cc2ccco2)cc1 | · | 2% | -15%[15.4 µM] | · | 1.0 | -12
O=S(=O)(Nc1ccc(-c2cn3c(n2)SCC3)cc1)c1cc(F)ccc1F | · | · | -24% | -1.4% | 0.2 | -3
CCC(C(=O)NC1CCCC1)N(C(=O)Cn1nnc(-c2ccc(C)o2)n1)c1ccc(F)cc1 (stereo unspecified) | 3.1 | -4% | 0%[15.4 µM] | -1.8% | -1.4 | 6
CCOC(=O)c1ccsc1NC(=O)c1ccco1 | · | -1% | ? | ? | 0.9 | -6
CCCC(=O)Nc1cccc(NC(=O)c2ccc([N+](=O)[O-])cc2Cl)c1 | · | -22% | -4% | 1.5% | -0.6 | -12

Reprinted from the part before: 3 entries, then new ones.
SMILES | Menin-MLL FL inh | gsp antagonist | gsp ag | ClpP mod | TRPML1 ag | TRPML1 inh
CCC(C(=O)NC1CCCC1)N(C(=O)Cn1nnc(-c2ccc(C)o2)n1)c1ccc(F)cc1 (stereo unspecified) | 3.1 | -4% | 0%[15.4 µM] | -1.8% | -1.4 | 6
CCOC(=O)c1ccsc1NC(=O)c1ccco1 | · | -1% | ? | ? | 0.9 | -6
CCCC(=O)Nc1cccc(NC(=O)c2ccc([N+](=O)[O-])cc2Cl)c1 | · | -22% | -4% | 1.5% | -0.6 | -12
CCn1cc(C(=O)NC2CCCCC2)c(=O)c2ccc(C)nc21 | -0.9 | 14% | 8% | 0.0% | 0.5 | -7
COc1ccc(CC(=O)Nc2ccc(S(=O)(=O)NC(C)C)cc2)cc1 | -1.0 | 1% | -63%[inhibitor] | -1.9% | 2.0 | -7
COc1cc(C(=S)N2CCC(C(N)=O)CC2)ccc1O | 0.4 | -5% | -14% | -0.8% | -0.5 | -9
CCCCOc1ccc(NC(=O)CSc2nnnn2C)cc1 | -0.8 | 1% | -29% | -2.2% | 0.0 | -10
COC(=O)C1=C(C)OC(N)=C(C#N)C1c1ccc(OC)c(OC)c1OC (stereo unspecified) | 3.1 | -13% | 15% | -3.0% | 0.0 | 3
Cc1ccc(NC(=O)CCn2nc(C)c(S(=O)(=O)N3CCCCC3)c2C)cc1Cl | · | · | · | 3.9% | 0.3 | -1
Cc1ccc(CNC(=O)CN2N=C(c3ccccc3)CCC2=O)cc1 | · | · | · | -0.7% | 0.8 | -11
COc1ccccc1C=NNC(=O)NN=Cc1ccccc1OC | · | ? | -38%[inhibitor] | · | 0.3 | 35
COc1ccc(OCC(=O)Nn2c(-c3cccc(OC)c3)nc3ccccc3c2=O)cc1 | 6.5 | -9% | 0% | -3.4% | 1.4 | -1
Cc1ccc(CN2CCC(n3nccc3NC(=O)CCOc3ccccc3)CC2)cc1C | · | -12% | -45%[inhibitor] | 0.6% | -0.5 | 0
Cc1ccccc1NC(=O)c1c(F)c(F)c(F)c(F)c1F | -0.2 | 6% | ? | -0.3% | -0.1 | -28
COc1ccc(C2C(C#N)=C(N)OC3=C2C(=O)CCC3)c(OC)c1OC (stereo unspecified) | 1.1 | 2% | -5% | -3.9% | 0.1 | -7
CC(C)Sc1nnc([C@H](Cc2ccccc2)NC(=O)OC(C)(C)C)o1 | 5.7 | 5% | -3%[15.4 µM] | · | 1.9 | 46
CCCc1ncc(C[n+]2ccccc2C)c(N)n1 | -13 | 9% | · | -1.5% | -0.3 | -12
CCOc1cc(S(=O)(=O)n2nc(C)cc2C)ccc1F | 3.0 | 5% | -60%[inhibitor] | 0.0% | 0.3 | 31
CCC(=O)NC1CC2CCCC(C1)N2Cc1ccc(C)cc1 (stereo unspecified) | 1.9 | 3% | 20% | -0.3% | · | ·
COC(=O)c1ccc(COc2ccccc2/C=N/O)o1 | 2.8 | 2% | -2%[15.4 µM] | · | 0.1 | -6
CNC(=S)N1C2CCC1CC(NC(=O)NC13CC4CC(CC(C4)C1)C3)C2 (stereo unspecified) | -0.4 | 2% | -46%[inhibitor] | -8.4% | 2.1 | -6
Cc1ccc(OCc2nn3c(-c4ccco4)nnc3s2)cc1 | 0.9 | 6% | -5% | -2.1% | 2.0 | -13
CC(=O)c1ccc(-c2cccc([C@H]3[C@@H]4C=CC[C@@H](C)[C@@H]4C(=O)N3Cc3ccccc3)c2)cc1 | -7.9 | -26% | · | 1.8% | -0.6 | 60
CCCN(CCC)CCNC(=O)CCC(=O)Nc1ccc2nc(N3CCN(C)CC3)cc(C)c2c1 | -5.8 | -6% | -18% | 3.8% | -0.6 | 16
CCC(C(=O)NCc1cccnc1)c1ccccc1 (stereo unspecified) | -1.5 | 4% | -23% | -1.1% | -0.5 | 40
Cc1cc2nnc(SCC(=O)NCc3cccs3)n2c2ccccc12 | 5.5 | 12% | 6% | -1.4% | -0.3 | 1
COc1cc(C(=O)Nc2cccc(-n3cnnn3)c2)cc(OC)c1OC | -0.4 | 10% | -15% | -3.2% | 0.7 | 4
Cc1ccc(NC(=O)c2c(C)oc3ncn(CC(C)C)c(=O)c23)nc1 | · | · | · | -2.4% | 0.9 | ?
Oc1cccc2ccc(Nc3ccccn3)nc12 | 2.3 | -3% | -5% | -2.4% | 0.0 | -3
O=C(Nc1nc2ccccc2n1CCN1CCOCC1)c1ccc(COc2ccccc2Br)o1 | 0.0 | -6% | -13%[15.4 µM] | · | -0.3 | 0
CC(=O)c1ccc(NC(=O)COCc2cc(-c3ccco3)on2)cc1 | · | · | · | -0.1% | 0.1 | 20
O=C(O)c1csc(-c2cccs2)n1 | -3.7 | -1% | ? | · | 0.2 | -4
CC(C)CCNC(=O)c1onc(CSc2ccc(F)cc2)c1C(=O)NCCC(C)C | · | 1% | · | -1.2% | 1.9 | 6
COCCCN1C(=O)C(=O)/C(=C(/O)c2ccc(C)cc2)C1/C=C/c1ccccc1 (stereo unspecified) | -6.4 | -12% | -18% | · | 3.2 | -2
CCc1nnc(NC(=O)CSCc2cc(=O)n3nc(C(C)C)sc3n2)s1 | · | -6% | -19% | -1.1% | 1.3 | 82
Cc1cc(C)n(-c2nnc(Nc3cc(Cl)ccc3C)c3ccccc23)n1 | · | · | · | -0.7% | 2.0 | -2
C[C@H]1C(=O)N(C)CCN1C(=O)c1ccc(OC2CCN(CCc3ccccc3)CC2)cc1 | · | · | -56% | -3.9% | -0.5 | -11
Cc1ccccc1CN(C)CC(=O)Nc1cccc(S(=O)(=O)N(C)c2ccccc2)c1 | 2.4 | -9% | -20%[15.4 µM] | · | 4.1 | 9
O=c1cc(-c2ccccc2)n2c(SCc3ccc(Cl)cc3)nnc2[nH]1 | · | · | · | -18% | 1.9 | -16
COC(=O)CNC(=O)Cn1cnc2sc(C)c(S(=O)(=O)N3CCN(c4ccccc4OC)CC3)c2c1=O | -0.4 | 15% | -3%[15.4 µM] | -1.3% | -0.5 | 3
COc1ccc(-c2csc(NCCc3nc4cc(Cl)c(N5CCCCC5)cc4n3CCOCCO)n2)cc1 | · | -16% | -66%[inhibitor] | 0.2% | 0.0 | -8
CCOc1ccc(C(=O)N/N=C/c2ccccc2[N+](=O)[O-])cc1 | 2.1 | -4% | 8% | -2.1% | 0.8 | -19
CC(C)(C)OC(=O)N1CCC(c2c(C(=O)NCc3ccc(F)cc3)cnn2-c2ccc(F)cc2)CC1 | · | · | · | 1.7% | 1.1 | 1
CC(=O)N1CCN=C1SCc1cccc(F)c1 | · | -4% | -30%[inhibitor] | -0.4% | -0.4 | -15
Cc1cc(C)c2c(=O)[nH]c(SCc3ccc([N+](=O)[O-])cc3)nc2n1 | 1.2 | 20% | -11% | -1.2% | 1.1 | -6
C=CCn1c(SCC(=O)NCCCO)nc2sc3c(c2c1=O)CCC3 | 4.1 | -12% | 9% | -0.9% | 0.4 | -21
COc1ccccc1N(C)S(=O)(=O)c1ccc(Cl)c(C(=O)NC2=NCCS2)c1 | 0.3 | -10% | -5%[15.4 µM] | · | -0.8 | 1
Cc1ccc(NC2=CC(=O)CC(c3ccc(Cl)cc3)C2)cc1 (stereo unspecified) | -1.2 | 1% | -6% | ? | 0.6 | -12
O=C1c2ccc(Oc3ccc([N+](=O)[O-])cc3)cc2C(=O)N1c1ccncc1 | -1.4 | -5% | -15% | · | -0.2 | 20
O=C(CSc1nnc(CNc2ccc(F)cc2)n1CC1CCCO1)N1CCOCC1 (stereo unspecified) | -1.9 | 1% | -42%[inhibitor] | · | 0.6 | -19
COc1cccc(-c2cc(C(=O)N3CCN(Cc4ccc5c(c4)OCO5)CC3)on2)c1 | -0.8 | -34% | ? | 0.2% | 1.6 | -2
CC(NS(=O)(=O)c1ccc2c(c1)OCCCO2)C(=O)O (stereo unspecified) | 1.5 | 7% | -2% | 1.1% | 1.4 | 18
CCn1c2ccccc2c2nnc(SCC(N)=O)nc21 | -0.9 | 4% | 28% | -7.3% | -0.4 | -2
COCc1nnc(NC(=O)c2cccc(NC(=O)C(C)C)c2)s1 | 0.8 | -2% | -57%[inhibitor] | -3.7% | 0.1 | 7
COc1cc(CN2CCC(CO)(Cc3cccc(C(F)(F)F)c3)CC2)ccc1F | 1.0 | 15% | 23% | 0.3% | 0.5 | -3
CCCCn1c(=O)[nH]c(=O)c2c1nc(-c1ccccc1OC(F)F)n2C | -0.6 | -4% | -9%[15.4 µM] | · | 2.7 | 0
Cc1ccc(CNC(=O)C2CCCN(Cc3cnn(-c4ccccc4)c3-n3cccc3)C2)cc1 (stereo unspecified) | 1.8 | -2% | -1% | 0.3% | 2.5 | 55
COc1ccc(C(=O)C[n+]2cn(C(F)F)c3ccccc32)c(F)c1 | -1.4 | 14% | 5%[15.4 µM] | · | 0.6 | 10
